Screens from PubChem BioAssay.
GCN5L2 inh – GCN5L2 (KAT2A) acetyltransferase inhibition; Q92830; GCN5L2 HAT assay, ThioGlo1 CoA-SH fluorescence; Potency, µM (doses to about 58.9 µM), for inactives: top-dose activity change, negative = inhibition, most hits filed as inhibitors; 390,000 tested, 0.21% active
Target sequence (Q92830 whole entry, looked up): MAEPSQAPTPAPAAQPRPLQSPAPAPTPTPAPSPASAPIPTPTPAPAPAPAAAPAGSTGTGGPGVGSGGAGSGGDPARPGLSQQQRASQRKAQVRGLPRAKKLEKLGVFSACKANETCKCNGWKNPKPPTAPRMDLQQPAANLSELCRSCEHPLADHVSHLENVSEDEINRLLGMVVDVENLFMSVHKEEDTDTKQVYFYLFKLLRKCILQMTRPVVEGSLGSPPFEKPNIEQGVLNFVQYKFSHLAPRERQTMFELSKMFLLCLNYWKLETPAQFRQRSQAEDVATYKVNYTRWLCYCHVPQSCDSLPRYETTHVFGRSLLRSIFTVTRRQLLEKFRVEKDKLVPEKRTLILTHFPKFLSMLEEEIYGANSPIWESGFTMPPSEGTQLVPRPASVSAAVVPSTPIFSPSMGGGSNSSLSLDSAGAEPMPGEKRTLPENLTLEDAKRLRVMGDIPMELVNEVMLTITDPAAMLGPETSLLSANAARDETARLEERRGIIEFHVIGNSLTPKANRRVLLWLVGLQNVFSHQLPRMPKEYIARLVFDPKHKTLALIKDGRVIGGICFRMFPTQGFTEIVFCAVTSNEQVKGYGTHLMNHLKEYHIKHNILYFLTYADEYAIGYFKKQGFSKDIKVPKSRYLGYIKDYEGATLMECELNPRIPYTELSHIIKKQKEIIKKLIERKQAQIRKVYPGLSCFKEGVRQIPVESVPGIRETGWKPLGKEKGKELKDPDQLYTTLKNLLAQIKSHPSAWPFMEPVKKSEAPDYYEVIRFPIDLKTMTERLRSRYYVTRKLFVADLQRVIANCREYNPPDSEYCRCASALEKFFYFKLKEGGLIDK
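Enzyme at 20nM final was mixed with library compounds for 15 min at room temperature. Peptide H3(1-25) at 75uM, acetyl-CoA at 70uM and ThioGlo1 at 50uM were then added. Plates were read immediately and after 20 min (Ex340nm/Em540nm).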
N370S GC – inhibits or activates N370S mutant glucocerebrosidase. P04062. Potency, µM (doses to about 59.4 µM), without a hit: at the highest dose activity change, negative = inhibition, usual class: inhibitors. N370S GC spleen homogenate, 4MU-glucoside fluorescence. 330,000 tested, 0.092% active;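 also: 0% = full enzyme activity and -100% = no enzyme basal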
* hit, by the source's call; ? = inconclusive; nt = no result given; [ ] = remark or other dose. Calls follow the shape of the dose curve; as a rule, active = well fitted curve in the direction sought with a large enough effect; inconclusive = small, poorly fitted or top-dose-only effect, or another doubt; inactive = no such curve, though single readings can be large; an effect the other way counts as inactive or inconclusive. Unless noted, % is scaled to controls: 0 for no effect and ±100 for the full control effect; potency is read from the fitted curve at half-maximal effect. These rows are one share of the data, and most or all hits are left out here.

Structure,GCN5L2 inh,N370S GC
COc1ccc(/C=C/C(=O)N(Cc2cccs2)C2CCS(=O)(=O)C2)cc1 (stereo not drawn),-2%,0%
CC/C=C(\NC(C)=O)c1ccccc1,?,nt
COC(=O)c1scc(S(=O)(=O)c2ccccc2)c1N,-4%,7%
CCc1ccc(NS(=O)(=O)c2c(C(=O)N3CCOCC3)c(C)n(C)c2C)cc1,-3%,0%
O=C(O)c1ccc(/C=C/c2ccc3cccc(O)c3n2)cc1,-7%,-8%
O=C(COC(=O)c1ccc(S(=O)(=O)N2CCCC2)cc1)Nc1ccc(Cl)cc1,0%,nt
COc1ccccc1NC(=O)C1=C(C)Nc2nnnn2C1c1ccccn1 (stereo not drawn),-1%,3%
CN(Cc1ccc(F)cc1)C(=O)CNC(=O)c1ccc2c(c1)OCO2,-17%,-11%
Cn1nnnc1SCC(=O)NNC(=O)c1ccc(F)cc1,-1%,7%
Cc1ccc(S(=O)(=O)N2CCCCC2C(=O)N2CCN(Cc3ccccc3)CC2)cc1 (stereo not drawn),-5%,-2%
O=C1CN(C(=O)COC(=O)CNC(=O)c2ccc(Br)o2)c2ccccc2N1,-3%,3%
Cc1cccc2c1NC(=O)C21OCC(CO)([N+](=O)[O-])CO1 (stereo not drawn),-3%,-6%
Cc1ccccc1C(OCC(O)CN1CCN(CCO)CC1)c1ccccc1 (stereo not drawn),0%,-13%
CCOC(=O)c1sc2nc(NC(=O)COc3ccccc3)sc2c1C,-4%,3%
CC(OC(=O)C1CC1C)C(=O)Nc1ncc(Cl)cc1Cl (stereo not drawn),1%,-4%
COc1cc(-c2noc(-c3ccco3)n2)cc(OC)c1OC,-5%,4%
O=C(Cn1cnc2c(nnn2Cc2ccccc2F)c1=O)OCc1ccccc1,-15%,15%
O=C(N/N=C/c1ccco1)c1cc(-c2ccc(Br)s2)[nH]n1,?,1%
CCOc1ccc(S(=O)(=O)NCc2ccncc2)cc1NC(=O)c1ccccc1,0%,-9%
Cc1ccc(-c2nnc(Nc3ccc(O)cc3)c3ccccc23)cc1S(=O)(=O)NCCO,-18%,?

Structure,GCN5L2 inh,N370S GC
CCn1c(C)nc2cc(N)ccc21,0%,1%
O=C(N/N=C/c1ccc([N+](=O)[O-])cc1)c1cccc(N2CCCC2=O)c1,-20%,0%
Cc1ccc(C(C(=O)NC2CCCCC2)N2CCN(C(=O)c3ccco3)CC2)cc1 (stereo not drawn),-6%,3%
Cc1cccc(NC(=O)CSc2nnnn2-c2cccnc2)c1,-26%,6%
Cc1ccc(CC2CC(=O)N(c3nc(C)cc(C)n3)C2=O)cc1 (stereo not drawn),-1%,-21%
CCC(NC(=O)COC(=O)C1CC2CCCC(C1)C2=O)c1ccc(Br)cc1 (stereo not drawn),-6%,-7%
COc1ccc(C(=O)C2CC2c2ccc3c(c2)OCO3)cc1 (stereo not drawn),-13%,-2%
Cc1cccc(C(=O)N(CC(=O)Nc2sc(C)c(C)c2C(N)=O)C2CCCC2)c1,-8%,14%
O=C(Nc1cccc2ccccc12)N1CCc2ccccc2C1,1%,0%
Cc1ccc(S(=O)(=O)N2CCN(C(=S)NCCc3ccccc3)CC2)cc1,-13%,8%
O=C(CCN1C(=O)[C@@H]2Cc3ccccc3CN2C1=O)Nc1cccc(F)c1,-13%,-2%
COc1cc(C2NC(=O)C(C#N)=C(S)N2c2ccccc2)ccc1OC(C)C (stereo not drawn),-1%,-1%
COc1cccc(-c2nnc(NC(=O)C(C)C)o2)c1,?,2%
CC(C(=O)Nc1ccccn1)(c1ccccc1)c1ccccc1,-3%,-18%
O=C(NNS(=O)(=O)c1ccc2ccccc2c1)c1cc(-c2ccccn2)nc2ccccc12,-4%,-13%
CN=C1c2cc3c(Br)c(OC)ccc3n2CCN1C,-2%,1%
Cc1cccc(NS(=O)(=O)c2ccc(C(=O)NCC(C)(C)N3CCOCC3)cc2)c1C,1%,-4%
CNc1sc(C(=O)c2ccccc2F)c(N)c1-c1nc2ccccc2s1,-10%,15%
CCNC(=S)N/N=C/c1c(Cl)cccc1Cl,1%,6%
CNC(=O)c1ccc(NC(=O)CN2c3cccc4cccc(c34)S2(=O)=O)cc1,-11%,25%

Structure,GCN5L2 inh,N370S GC
COC(=O)C1CCCN1C(=O)COc1ccc(Br)cc1Cl (stereo not drawn),3%,-3%
CCN(CC)C(=O)C(C)OC(=O)c1ccc(O)cc1 (stereo not drawn),2%,-1%
CC1CCN(C(=O)CSc2nnc(Cc3cccn3C)n2CCc2ccccc2)CC1,-5%,2%
Cc1cc(NC(=O)CSCC(=O)N2CCN(c3cccc(C(F)(F)F)c3)CC2)no1,-8%,-9%
Cc1ccc(NC(=O)CNC(=O)c2ccc3c(c2)OCO3)nc1,-1%,8%
NC1=NC2(CCCC2)n2c(nc3ccccc32)N1,-2%,4%
CCOc1ccc(NS(=O)(=O)c2ccc(C)c(C(=O)NCCCn3ccnc3)c2)cc1,-4%,-6%
COC(=O)c1cn(-c2ccc(F)cc2)c(=O)c2ccccc12,3%,-15%
Cc1ccc(NC(=O)Nc2ncccc2C)cc1,-5%,25%
COc1ccc(-c2nc3cccc(C)n3c2NCC2CCCO2)cc1O (stereo not drawn),-21%,7%
N#C/C(=C\c1c(F)cccc1Cl)C(=O)NC1CC1,-3%,-2%
C=CCSc1ncccc1C(=O)NCCc1ccccc1,3%,-7%
Clc1ccc(CN2CCCCCC2)cc1,-9%,-1%
COc1ccc(-c2coc3cc(OC4OC(CO)C(O)C(O)C4O)ccc3c2=O)cc1 (stereo not drawn),1%,-4%
Cc1ccccc1C(=O)Nc1cc(-c2cc(C(C)(C)C)oc2C)nn1C,-9%,0%
CC(C)CCN1CCNC(=O)C1CC(=O)NCCCN1CCOCC1 (stereo not drawn),-2%,4%
Cc1cccc(C)c1Nc1nnc(SCC(=O)NC(=O)c2cccn2C)s1,19%,9%
CCCCn1c(N)c(N(CC(C)C)C(=O)C2CCC2)c(=O)[nH]c1=O,-6%,nt
O=C(CSc1nnc(-c2cccnc2)n1CCN1CCCCC1)Nc1cccc(Cl)c1,-7%,25%
CC(C)(C)c1ccc(C(=O)Nc2ccc(N3CCOCC3)cc2)cc1,-1%,11%

Structure,GCN5L2 inh,N370S GC
Cc1ccc(S(=O)(=O)N(C)C)cc1NC(=O)C1Cc2ccccc2CN1C(=O)c1ccco1 (stereo not drawn),-1%,-7%
COc1ccc(NC(=O)Nc2ccc3c(c2)CCC3)cc1OC,-5%,-7%
Cn1c(N)c(C(=O)CSc2nc3ccccc3n2-c2ccccc2)c(=O)n(C)c1=O,-7%,1%
Cc1cc(NC(=O)c2ccc(N3C(=O)CCC3=O)cc2)no1,?,-16%
COc1ccc2c(c1)c1ccccc1n2C,-7%,14%
Cn1c(=O)n(CCOc2ccc(Cl)cc2Cl)c2ccccc21,0%,-7%
C/C(=N\NC(=O)c1ccc(C)cc1)C1C(=O)c2ccccc2C1=O,-10%,-7%
CCOC(=O)[C@@H]1[C@H]2COc3ccc(Br)cc3[C@H]2N2C(=O)N(c3cccc(Cl)c3)C(=O)[C@]12C,-9%,25%
O=C(Cn1ncc2c(=O)oc3ccccc3c21)N1CCCc2ccccc21,-12%,-6%
Cc1cc(C)n2nc(SCC(=O)NC(=O)NCc3ccco3)nc2n1,-10%,11%
C/C(=N\NC(=O)c1nnn(-c2nonc2N)c1-c1cccs1)c1cccc(O)c1,0%,-1%
c1coc(CN2CNc3nc4ccccc4n3C2)c1,-2%,-5%
COc1ccc(OCC(O)CNCCOc2ccccc2OC)c(C(C)(C)C)c1 (stereo not drawn),?,-26%
COCCNc1nc2nonc2nc1NC(C)c1ccccc1Cl (stereo not drawn),1%,4%
C=CCn1c(CCn2c3ccccc3c3ccccc32)n[nH]c1=S,0%,10%
CCCS(=O)(=O)N1CCCC(C(=O)NC2CCCC(C)C2C)C1 (stereo not drawn),-3%,-2%
COc1ccc(N(C)C(=O)c2cc3c(s2)-c2ccccc2OC3)cc1,-8%,nt
COc1ccccc1CN1CC(C(=O)N(C)Cc2ccncc2C)CCC1=O (stereo not drawn),-29%,7%
CC(=O)c1ccc(N2CCN(C(=O)C3CCCN(S(=O)(=O)c4c(C)[nH]c(=O)[nH]c4=O)C3)CC2)cc1 (stereo not drawn),-3%,-7%
COc1cc(C)c(S(=O)(=O)n2nnc3ccccc32)cc1C,-21%,2%

Structure,GCN5L2 inh,N370S GC
COc1cc(C(=O)N/N=C(\C)Cc2ccccc2)cc(OC)c1OC,-8%,-1%
CCOc1ccc(NC(=O)CSc2nncc(=O)[nH]2)cc1,-2%,1%
CCCc1cc(=O)oc2cc(OC3CCCCC3=O)ccc12 (stereo not drawn),-1%,9%
O=C(Nc1ccccc1C(F)(F)F)c1ccc(F)c(S(=O)(=O)N2CCc3ccccc3C2)c1,-4%,nt
Cn1c(CC2Sc3ccccc3NC2=O)nnc1SCC(=O)c1ccc(Cl)cc1 (stereo not drawn),-7%,0%
Cc1ccc(CC2CC(=O)N(c3ccc4c(c3)OCCO4)C2=O)cc1 (stereo not drawn),-2%,2%
O=c1[nH]c(Cc2ccccc2)nc2scc(-c3ccccc3)c12,-1%,2%
CCCn1c(N)c(C(=O)CSc2nnc3ccccn23)c(=O)[nH]c1=O,-3%,nt
CC(=O)N1CCCc2cc(S(=O)(=O)NC(C(=O)NCc3ccc(C)cc3)C(C)C)ccc21 (stereo not drawn),-4%,-9%
Cc1ccc(Cn2c(SCC(=O)NCc3ccccc3)nc3ccsc3c2=O)cc1,-5%,nt
Cn1c(CO)cnc1SCc1c(Cl)cccc1Cl,12%,0%
CC1CCCN(S(=O)(=O)c2ccc(S(=O)(=O)NC(C)c3cccs3)cc2)C1 (stereo not drawn),-9%,7%[12.8 µM]
CN(Cc1ccc(-n2cccn2)cc1)Cc1cn(C)nc1-c1ccccc1F,?,-4%
O=C(Cn1cc([N+](=O)[O-])cn1)Nc1ccccn1,16%,4%
COc1cc(C(=O)NCC(=O)NCC2COc3ccccc3O2)cc(OC)c1OC (stereo not drawn),-8%,-10%
CC(OC(=O)C(C)N1C(=O)C2C3C=CC(C4CC34)C2C1=O)C(=O)c1ccccc1 (stereo not drawn),-2%,-5%
CCC(C)c1ccc(NC(=O)COC(=O)C2CCCC2)cc1 (stereo not drawn),-11%,nt
CCN(CC)c1ccc(C2Nc3cccc4cccc(c34)N2)c(O)c1,2%,5%
COc1ccc(/C=C/CN2CCCC(CCC(=O)NCc3ccc(F)c(F)c3)C2)cc1 (stereo not drawn),-12%,-7%
CCOC(=O)Cn1nnc(-c2cc(OC)c(OC)c(OC)c2)n1,-9%,0%

Five of the entries above in order of the GCN5L2 inh value, falling.
Structure,GCN5L2 inh,N370S GC
Cn1c(CO)cnc1SCc1c(Cl)cccc1Cl,12%,0%
CCN(CC)c1ccc(C2Nc3cccc4cccc(c34)N2)c(O)c1,2%,5%
CCCn1c(N)c(C(=O)CSc2nnc3ccccn23)c(=O)[nH]c1=O,-3%,nt
CC(=O)N1CCCc2cc(S(=O)(=O)NC(C(=O)NCc3ccc(C)cc3)C(C)C)ccc21 (stereo not drawn),-4%,-9%
COc1cc(C(=O)NCC(=O)NCC2COc3ccccc3O2)cc(OC)c1OC (stereo not drawn),-8%,-10%

Profiles as entered above:
CCCn1c(N)c(C(=O)CSc2nnc3ccccn23)c(=O)[nH]c1=O is listed as GCN5L2 inh = -3%; N370S GC = nt
CC(OC(=O)C(C)N1C(=O)C2C3C=CC(C4CC34)C2C1=O)C(=O)c1ccccc1 (stereo not drawn) is listed as GCN5L2 inh = -2%; N370S GC = -5%

The listing continues.
Structure,GCN5L2 inh,N370S GC
O=C(Cn1c(C2CC2)nc2ccccc2c1=O)Nc1ccc(Br)cc1,0%,-2%
Cc1cc(C)c(S(=O)(=O)N2CCCCC2CCNC(=O)C(=O)NCCN2CCOCC2)c(C)c1 (stereo not drawn),-8%,-2%
Cc1ccccc1NC(=O)c1cccc(S(=O)(=O)Nc2cccc(C(=O)O)c2)c1,-7%,-4%
O=C(O)c1cc(S(=O)(=O)NCC2COc3ccccc3O2)ccc1Cl (stereo not drawn),-10%,nt
CC(C)CN(C(=O)C1CC1)C1CCS(=O)(=O)C1 (stereo not drawn),0%,-9%
CC(C)NC1=C(Cl)C(=O)c2ccccc2C1=O,-3%,-2%
COc1ccc2cc(N=Cc3nc(-c4ccc(C)cc4)oc3O)cnc2c1,-4%,-4%
COc1ccccc1N1CCN(C(CNS(=O)(=O)c2cc(F)ccc2F)c2cccnc2)CC1 (stereo not drawn),0%,9%
